Assay outcomes (PubChem BioAssay)
HPGD inh: blocks human HPGD enzyme activity | purified HPGD, NADH fluorescence kinetic, PGE2 substrate | Potency, µM, inactives show at the highest dose activity change, negative = inhibition, usual class: inhibitors | 4.3% of 150,000 active | AID 894; active = well fitted inhibition curve with a large enough effect (not every such curve was filed as active); inconclusive = small, poorly fitted or top-dose-only effect, or another doubt; inactive = no such curve, though single readings can be large or run the other way;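 note: top concentration of the series not given in the record; plate controls included wells without enzyme; inactives centre near -10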
Target sequence (P15428 whole entry, looked up): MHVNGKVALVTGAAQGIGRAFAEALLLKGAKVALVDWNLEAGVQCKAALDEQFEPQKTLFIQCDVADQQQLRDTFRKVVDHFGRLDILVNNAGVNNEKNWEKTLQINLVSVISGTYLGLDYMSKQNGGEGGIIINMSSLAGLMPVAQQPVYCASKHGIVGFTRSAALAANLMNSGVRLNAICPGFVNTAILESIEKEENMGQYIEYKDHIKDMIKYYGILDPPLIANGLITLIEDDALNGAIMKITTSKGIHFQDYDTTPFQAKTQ
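NADH formation kinetics: reaction with 30 uM PGE2 and 1 mM NAD+ (final), 20 nM enzyme, Tris-HCl pH 8 with Tween 20, after 15 min compound preincubation at room temperature. Fluorescence change, last versus first of five reads.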
An asterisk follows results filed as active; u = inconclusive; & = joins results of further samples. % is set by controls: 0 for no effect and ±100 for the full control effect; potency is the fitted concentration of half-maximal effect. Not all compounds are listed; count on the stated rates, not on these rows.

structure | HPGD inh
C=Cc1c(C)c2cc3nc(cc4[nH]c(cc5nc(cc1[nH]2)C(C)=C5CCC(=O)O)c(CCC(=O)OC)c4C)[C@@]1(C)C3=CC=C(C(=O)OC)[C@H]1C(=O)OC (tested in a mixture with another compound) | -5%
COc1ccc(N2CCN(C(=O)CSc3nc4c(c(=O)n(C)c(=O)n4C)n3C(C)C)CC2)cc1 | -7%
CCOc1ccc2cc(C(=O)c3ccccc3)c(=O)oc2c1 | -17%
COc1ccc(C(=O)N2CCN=C2c2ccccc2)cc1OC | -4%
CN1C(=O)c2ccccc2C(C(=O)NCc2ccco2)C1c1c[nH]c2ccccc12 (stereo not drawn) | 0%
CCCC(=O)Nc1ccc(NC(=O)c2cccc(OC)c2)nc1 | 4%
C=CCSc1nc2ccccc2n1Cc1nnc(-c2cccs2)o1 | u
O=C(N1CCN(c2ccccn2)CC1)C(Cl)(Cl)Cl | -23%
Cc1ccccc1C(=O)NC(C(=O)Nc1nc2c(s1)CCCC2)C(C)C (stereo not drawn) | -14%
Cc1ccc2oc(=O)c3cnn(CC(=O)N(CCCN4CCOCC4)Cc4ccco4)c3c2c1 | -11%

(further entries)
structure | HPGD inh
COc1ccc(C)cc1NC(=O)C(=O)NNC(=O)c1ccco1 | -12%
N#C/C(=C\N1CCNC1=S)C(=O)c1ccc2ccccc2c1 | -13%
NC(=O)[C@@H]1CCCNc2c(I)cc([N+](=O)[O-])cc2C(=O)N[C@@H](CO)C(=O)N[C@@H](Cc2ccc(O)cc2)C(=O)N1 | -6%
O=C1CC(C(=O)N(c2ccc(F)cc2)C(C(=O)NC2CCCC2)c2ccccn2)CS1 (stereo not drawn) | -6%
CCCCCC(C)NC(=O)c1ccoc1C (stereo not drawn) | 2%
O=C(Cn1cnc2c(nnn2-c2ccccc2)c1=O)N1CCC(Cc2ccccc2)CC1 | -13%
CCC(C(=O)N1CCc2ccccc2C1)n1nc(C)n2c(cc3occc32)c1=O (stereo not drawn) | -7%
O=C1NC(=O)C2C3c4ccccc4C(c4ccccc43)C12 (stereo not drawn) | -12%
CCc1ccc(N2CC(C(=O)OCC(=O)Nc3cc(C)on3)CC2=O)cc1 (stereo not drawn) | -9%
CCCN(CC1CC1)S(=O)(=O)c1ccc(S(N)(=O)=O)cc1 | 4%

Other compounds.
structure | HPGD inh
O=c1c2ccccc2nnn1CSc1ncnc2ccccc12 | -11%
O=C(O)CCC(=O)N1CCc2cc(S(=O)(=O)NC3CCCC3)ccc21 | 13µM*
O=S1(=O)N=C(Oc2cccc3ccccc23)c2ccccc21 | -17%
N#Cc1ccc(-c2ccccc2)nc1Sc1ccc(F)cc1 | -10%
COc1ccc(Cc2c(C)nc(N)nc2Cl)cc1 | -3%
CCN(CCCNC(=O)C1CCC(=O)N1C(C)C)c1cccc(C)c1 (stereo not drawn) | -6%
CCC(=O)Nc1cccc(NC(=O)COc2ccc(OC)cc2)c1 | -1%
CC(C)(C)N1CC(c2nc3ccccc3n2Cc2ccc(Cl)cc2)CC1=O (stereo not drawn) | -23%
COc1cc(C2NC(C(=O)O)CS2)ccc1OCc1ccccc1C#N (stereo not drawn) | -17%
C[C@@H](NCc1cc(Br)cc2[nH]c(=O)c(=O)[nH]c12)P(=O)(O)O | -3%

Following part.
structure | HPGD inh
CCOC(=O)c1sc(C)c(C(N)=O)c1NC1=NCCCCC1 | -12%
Cc1ccc(C2/C(=C(/O)c3ccc(Cl)cc3)C(=O)C(=O)N2CC2CCCO2)o1 (stereo not drawn) | -12%
CCOC(=O)N1CCN(C(=O)COc2ccc(Cl)cc2)CC1 | 6%
O=C(NCCN1CCOCC1)c1ccc2c(c1)ncn2C1CCCCC1 | -9%
COc1cccc(CN(Cc2ccccc2F)S(=O)(=O)c2ccc(S(=O)(=O)NCc3ccccc3)cc2)c1 | -9%
COC(=O)Nc1ccc(OCC(=O)N2CCOCC2)cc1 | -3%
COc1ccc(CC(=O)NC(=S)Nc2ccc(S(=O)(=O)NC(C)(C)C)cc2)cc1 | -16%
Cc1c(C(=O)NCC(C)C)sc2nc(-c3ccc(F)cc3)cn12 | -20%
Cc1noc(C)c1C(=O)Nc1ccccn1 | -19%
CC(C)(C)NC(=O)NC(=O)COC(=O)C1CC(=O)N(Cc2ccccc2)C1 (stereo not drawn) | -24%

(more compounds)
structure | HPGD inh
CCCCn1c(O)c(N=NC(=O)c2ccncc2)c2cc(Br)ccc21 | -2%
CCCCc1[nH]c(=O)c(C#N)c2c1CCCC2 | u
COc1ccccc1-c1cc(-c2cc(Cl)ccc2O)n[nH]1 | -19%
Cc1cccc(Nc2nnc(SC/C(O)=C(\C#N)c3nc4ccccc4[nH]3)s2)c1C | -13%
CCCCCCOC(=O)C(C#N)c1nc2ccccc2nc1N1CCN(CC)CC1 (stereo not drawn) | -1%
Cc1cc(C)n(C(=O)CNC(=O)Cc2ccccc2)n1 | -20%
O=c1c2c3c(sc2nc2n1CCCCC2)CCCC3 | u
O=C1C(Cc2cccc([N+](=O)[O-])c2)S/C(=N/N=C/c2ccco2)N1c1ccccc1 (stereo not drawn) | -3%
O=C(CN1C(=O)c2ccccc2S1(=O)=O)N1CCOCC1 | 3%
Cc1ccc(/C=C/c2nc3ccccc3s2)s1 | -17%

Following part.
structure | HPGD inh
CC(=O)n1nc(-c2ccc(Cl)cc2)nc1NCc1ccco1 | -18%
Cc1ccc(S(=O)(=O)NCC(C)NS(C)(=O)=O)cc1 (stereo not drawn) | -14%
CCc1nnc(NS(=O)(=O)c2ccc(NC(=S)NC(=O)/C=C/c3ccccc3)cc2)s1 | u
Cc1ccc(C(=O)C(C)OC(=O)c2cc3cc([N+](=O)[O-])ccc3oc2=O)cc1 (stereo not drawn) | -22%
Cc1ccccc1C(=O)N1CCc2ccccc2C1 | 0.63µM*
C1CCN2C[C@H]3C[C@H](CN4CCCCC34)C2C1 (stereo partly drawn) | -9%&1%
CC1(c2ccc3noc(-c4ccc(F)cc4)c3c2)OCCO1 | -10%
Cc1nc(Oc2cccc(Cl)c2)c2oc3ccccc3c2n1 | -1%
CCOC(=O)N1CCC(n2c(SCC(=O)NCc3ccccc3)nc3ccccc3c2=O)CC1 | 3%
C=CCn1c(SCC(N)=O)nc(C)cc1=O | 0%

Overlap with the part before: two entries, followed by the next part.
structure | HPGD inh
CCOC(=O)N1CCC(n2c(SCC(=O)NCc3ccccc3)nc3ccccc3c2=O)CC1 | 3%
C=CCn1c(SCC(N)=O)nc(C)cc1=O | 0%
CC(C)COc1ccc(Cc2cnc(N)nc2N)cc1 | -15%
Cc1oc(-c2ccccc2F)nc1CS(=O)(=O)CC(=O)NCCN(C)C1CCCCC1 | -10%
CC(=O)c1cccc(NC(=O)CCNS(=O)(=O)c2cccc3nsnc23)c1 | -1%
O=C(COC(=O)C1CCCCC1)NCCc1ccccc1 | -9%
COc1ccc(Cl)cc1S(=O)(=O)N1CCN=C1C | -3%
COc1ccc(-c2nn(C)c3sc(C(=O)N4CCOCC4)cc23)cc1OC | -13%
COc1cc2c(cc1OC)-c1cc(Nc3ccc4c(c3)OCCO4)nc(=O)n1CC2 | u
Cc1cc(/C=C2/NC(=O)N(Cc3ccccc3F)C2=O)c(C)n1C(C)C | -26%
CCC(CC)NC(=O)COC(=O)CCC(=O)c1cccs1 | -8%
CCCOc1cccc(NC(=O)c2c(-c3ccccc3)noc2C)c1 | u

(cont.)
structure | HPGD inh
COc1cc2[nH]c(-c3ccc(C)cc3)cc(=O)c2cc1OC | u
Cc1ccc(Cl)cc1NC(=O)COC(=O)C1CCCCC1 | -7%
COc1ccc(C(=O)NC(=S)Nc2cc3oc4ccccc4c3cc2OC)cc1 | -9%
CC[C@H](C)[C@H](NS(=O)(=O)c1ccc(C)cc1)C(=O)N1CCC(C(=O)N[C@H](C(=O)O)C(C)C)CC1 | -2%
COc1ccc(C)cc1NC(=O)c1ccc(S(=O)(=O)N2CCOCC2)cc1 | -9%
COc1ccc(C(=O)/C=C/c2cn(CC(O)CN3CCOCC3)c3ccccc23)cc1 (stereo not drawn) | -10%
C/C(=N\OC(=O)c1ccc(C)cc1)c1sc(C)nc1C | -5%
Cc1cc(C(F)F)n2nc(C(=O)Nc3cc(C)on3)nc2n1 | -6%
CCc1ccc(-c2nc(CN3CCCC(C(=O)O)C3)c(C)o2)cc1 (stereo not drawn) | -5%
Cc1cc(Nc2ccc(Cl)cc2)n(-c2cccc(Cl)c2)n1 | -17%

Additional compounds follow:
structure | HPGD inh
C=CCn1c(SCc2c(C)noc2C)nc2ccccc2c1=O | -19%
COc1ccc(N2CCN(CCNC(=O)CCNS(=O)(=O)c3cccs3)CC2)cc1 | -17%
CCN(CC)CCCN1C(=O)C(O)=C(C(C)=O)C1c1cccc(OC)c1 (stereo not drawn) | -9%
CC(=O)N1CCN(C(=O)c2cccc(S(=O)(=O)Nc3ccc(C)cc3)c2)CC1 | 4%
COC(=O)[C@@H]1C[C@@]2(O)[C@H](O)[C@H](O)[C@H](O)C[C@H]2N1Cc1ccccc1OS(=O)(=O)c1ccc(C)cc1 | -2%
Cc1ccc(-c2noc(CCC(=O)NCCCN3CCN(c4cccc(Cl)c4)CC3)n2)cc1 | -4%
CCOC(=O)N=S(=O)(Oc1ccc([N+](=O)[O-])cc1)c1ccc(Cl)cc1 (stereo not drawn) | -14%
CCOC(=O)C1CCCN(c2cc(=O)n(Cc3ccc(F)cc3)c(=O)[nH]2)C1 (stereo not drawn) | 0%
CC(C)(C)c1cc(C(=O)NCc2ccccc2)ccn1 | -18%
CC(C)CC(=O)NN(C)c1nc(-c2ccccc2)nnc1C(F)(F)F | -12%

Pulled by compound from the list above:
structure | HPGD inh
CCOC(=O)C1CCCN(c2cc(=O)n(Cc3ccc(F)cc3)c(=O)[nH]2)C1 (stereo not drawn) | 0%
CCN(CC)CCCN1C(=O)C(O)=C(C(C)=O)C1c1cccc(OC)c1 (stereo not drawn) | -9%
CC(=O)N1CCN(C(=O)c2cccc(S(=O)(=O)Nc3ccc(C)cc3)c2)CC1 | 4%
C=CCn1c(SCc2c(C)noc2C)nc2ccccc2c1=O | -19%
COC(=O)[C@@H]1C[C@@]2(O)[C@H](O)[C@H](O)[C@H](O)C[C@H]2N1Cc1ccccc1OS(=O)(=O)c1ccc(C)cc1 | -2%

An excerpt of these results, with the structure last:
HPGD inh,Molecule
2%,CCCCCC(C)NC(=O)c1ccoc1C (stereo not drawn)
-12%,COc1ccc(C)cc1NC(=O)C(=O)NNC(=O)c1ccco1
-17%,O=S1(=O)N=C(Oc2cccc3ccccc23)c2ccccc21

The list goes on:
structure | HPGD inh
CCOC(=O)C(=CNc1cc(C)nn1-c1ccc(C)cc1)C(=O)OCC | -6%
COc1cc(CN(C)Cc2ccccc2)cc(OC)c1O | -2%
CC(C)C12CC[C@@]3(CC[C@H]4[C@@](C)(CCC[C@]4(C)C(=O)O)[C@@H]3C1)[C@@H](CN)C2 | -4%
O=C(Nc1nnc(Cc2c[nH]c3ccccc23)s1)c1ccc(Cl)cc1Cl | -8%
N#CCCN(Cc1cccnc1)S(=O)(=O)c1ccc(S(=O)(=O)NC2CCCCC2)cc1 | -17%
CCOc1cc(Br)ccc1S(=O)(=O)N1CC(C)OC(C)C1 (stereo not drawn) | -10%
O=C(NCc1cccnc1)c1ccc(CS(=O)(=O)c2ccc(Cl)cc2)o1 | -11%
CCOCCCn1c(=N)c(C(=O)NCc2ccc3c(c2)OCO3)cc2c(=O)n3ccccc3nc21 | u
CCONC(=NC)c1nonc1N | -2%
Cc1onc(-c2c(F)cccc2Cl)c1C(=O)N1C=CC(C(F)(F)F)=NCC1 | -13%

(cont.)
structure | HPGD inh
Cc1cc(C)n2nc(SCc3cc(=O)oc4ccc5ccccc5c34)nc2n1 | -15%
N#Cc1c(N)c(C#N)c(-c2ccc3c(c2)OCO3)c2c1CCCC2 | u
CC(C)NCCOCCOc1ccccc1F | -7%
O=C(CCCCCn1c(=O)[nH]c2ccsc2c1=O)NCc1ccc2c(c1)OCO2 | -20%
COc1ccc(CC(=O)Nc2ccc3c(c2)CCC3)cc1OC | -7%
Cc1cccc(-c2csc(NC(=O)c3cnccn3)c2C(=O)OC(C)C)c1 | -9%
Cc1ccccc1N=C1NC(=O)CC(c2ccccc2)S1 (stereo not drawn) | -20%
O=C(Nc1cccc2ccccc12)N1CCc2ccccc2C1 | -3%
Cc1cc(NC(=O)CSCc2nc(-c3cccc(Cl)c3)oc2C)no1 | -6%
CN(C(=S)Nc1ccc(F)cc1)C1(c2ccccc2Cl)CCCCC1=O (stereo not drawn) | -1%

(more compounds)
structure | HPGD inh
CCN(CC)c1ccc(/C=C2/C(=O)ON=C2C)cc1 | -19%
Cc1cc(=O)[nH]c(N/N=C/c2cccc([N+](=O)[O-])c2)n1 | -14%
CCC(C)NC(=O)Cn1c(=O)n(CCCCC(=O)NCc2ccco2)c(=O)c2ccccc21 (stereo not drawn) | -8%
CN(C)C(CNC(=O)c1cccnc1Sc1ccccc1)c1ccco1 (stereo not drawn) | 5%
COc1ccc(CNC(=O)c2ccc(C)o2)cc1 | 3.5µM*
CC(C)(C)c1ccc(OCCCNCc2ccccc2)cc1 | -7%
O=C(O)c1ccc(C(=O)O)cc1 | -3%
c1ccc2c(c1)nnn2-c1ncnc2sc3c(c12)CCCC3 | u
C/C(CCN1CCc2nc(-c3ccccc3)c(-c3ccccc3)cc2C1)=N\O[C@@H](C)c1cn([C@H](CO)Cc2ccccc2)nn1 | -14%
Cc1cc(C)nc(SCC(=O)n2c3c(c4ccccc42)CCCC3)n1 | -3%
CC(C)(C)NC(=O)COC(=O)c1cc(S(=O)(=O)N2CCCCC2)ccc1N1CCOCC1 | -9%
Cc1cc(C(C)c2ccccc2)c(O)c(CN2CCOCC2)c1C (stereo not drawn) | -28%
CCOC(=O)Cc1csc(NC(=O)c2sc3nc4ccc(C)cc4cc3c2N)n1 | -13%
